# Compound activity (PubChem BioAssay)
# GIV Gai3 FP: GIV-Galpha-i interaction inhibition. percent of control (FP), % (concentration not given with the values). 0.42% of 210,000 active. P08753. Galpha-i3/FITC-GIV peptide fluorescence polarization, 90 min; active compounds read low; scaled: aluminum fluoride 0%, vehicle 100%;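 active = replicate mean at 85% of control or lower, very high polarization wells dropped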;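 note: wells of about 15 µL received 100 nL stock; the first replicate is given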
# Target sequence (P08753 whole entry, looked up): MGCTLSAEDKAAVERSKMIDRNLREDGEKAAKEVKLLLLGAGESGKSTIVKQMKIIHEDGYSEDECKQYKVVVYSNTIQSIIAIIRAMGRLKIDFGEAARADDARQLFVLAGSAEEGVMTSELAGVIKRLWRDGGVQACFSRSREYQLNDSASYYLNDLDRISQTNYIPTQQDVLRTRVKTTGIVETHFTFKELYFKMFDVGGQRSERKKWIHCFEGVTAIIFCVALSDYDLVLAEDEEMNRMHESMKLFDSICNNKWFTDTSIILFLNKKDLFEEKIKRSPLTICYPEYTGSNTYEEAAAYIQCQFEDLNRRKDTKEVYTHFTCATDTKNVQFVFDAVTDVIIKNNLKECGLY
# HCMV NEC inh: inhibitors of HCMV UL50-UL53 nuclear egress complex interaction | HTRF UL50-UL53 interaction, normalized percent inhibition | inhibition, % (no concentration beside the values) | 0.15% of 190,000 active | AID 1918969;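 active = both replicates at 50% or more, plus weaker picks with an unusually low signal ratio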;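 note: stock transfer was 100 nL into about 20 µL; 0% = negative control wells and 100% = wells with untagged competitor protein; inactives centre near -12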
# Sa growth inh: blocks Staphylococcus aureus growth; relative growth, % (no concentration beside the values); S. aureus RN4220 growth, OD600, 20 h, 42 °C; active compounds read low; 0.53% of 170,000 active; AID 720641;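 active = growth at 42 °C up to 50% and 20 or more points under that at 30 °C, or under 10% at both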;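 note: 300 nL library stock went into each well; scaled to the means of positive and negative controls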
# Sa growth inh second temp: second read-out of Sa growth inh, no call of its own (marks repeat the call); relative growth, %; measured here: growth at 30 °C;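 optical density after 20 h as mean of two plates; 100% = untreated growth and lower means inhibition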
# Active calls of the source: *; . = not tested or not shown; & = joins results of further samples.
SMILES,GIV Gai3 FP,HCMV NEC inh,Sa growth inh,Sa growth inh second temp
CC(C(N)=O)N1c2cccc3cccc(c23)S1(=O)=O (centres undefined),106,-52,108,107
CC1(C)C2CC=C(CN3CCN(c4ccccc4)CC3)C1C2 (centres undefined),101,-13,112,92
Cc1nnc(SCC(=O)Nc2ccc(Br)cc2)[nH]c1=O,113,14,93,99
Cc1nc2c(c(C)nn2-c2ccccc2)c(C)c1CCC(=O)Nc1ccccc1,100,2,108,97
CCOc1ccccc1C(=O)Nc1cccc(-c2ccc(N3CCOCC3)nn2)c1,107,-51,66,41
COc1ccc(N2CCN(C(=O)c3sc4nc(C)nc(N5CCOCC5)c4c3C)CC2)cc1,106,-15,.,.
CC(C)(C)c1cc2nc(C(F)(F)F)cc(C#N)n2n1,102,-13,104,92
CC(C)CN(CC(C)C)C(=O)CCN1C(=O)c2ccccc2C1=O,.,-21,83,87
Cc1nc(-n2nc(C)c(Cl)c2C)sc1C(=O)N1CCCC1,93,-1,.,.
O=C(Cn1cnc2scc(-c3ccc(Br)cc3)c2c1=O)N1CCNC1=O,.,-29,79,79
C/S(=N\S(=O)(=O)c1ccccc1)c1ccccc1 (centres undefined),101,-16,103,80
C=Cc1ccc(Cn2c(C)c(CNCc3cccc(Br)c3)c(C(=O)O)c2C)cc1,104,-12,112,98
CCOC(=O)c1c[nH]c2c(C(=O)OC)cccc2c1=O,.,-12,92,78
CC12CCC(=O)N1C(C(=O)OCC(=O)N1CCc3ccccc31)CS2 (centres undefined),.,7,84,94
CC1CCN(CN2C(=O)CCC2=O)CC1,92,-32,77,103
COc1cc(NC(=O)CCNC(=O)Cn2cnc3ccccc3c2=O)cc(OC)c1OC,99,4,98,86
CCOC(=O)C1=C(C)N=c2s/c(=C\c3ccc(C(=O)OC)cc3)c(=O)n2C1c1ccc(Cl)cc1 (centres undefined),106,-9,.,.
O=C(COc1ncnc2c1cnn2-c1ccccc1)N1CCc2ccccc21,.,-17,106,94
COc1cc(Nc2nc3ccc(Cl)cc3nc2-n2nc(C)cc2C)cc(OC)c1,107,-12,111,88
CCOC(=O)c1[nH]c(C)c(S(=O)(=O)NC2CCCCNC2=O)c1C (centres undefined),108,-5,101,100
Cc1cc(C)nc(NS(=O)(=O)c2ccc(Nc3nc(-c4sc(C)nc4C)cs3)cc2)n1,103,-21,.,.
Cc1cccc2c1-c1sc(C(=O)N3CC=C(c4ccccc4)CC3)cc1CO2,97,-16,.,.
CC(C)CCn1c(=O)c2sccc2n2c(SCC(=O)N3CCCCC3C)nnc12 (centres undefined),105,-6,.,.
Cc1ccc2nncc(N3CCN(c4ccccc4F)CC3)c2c1,103,-92,93,54

# Twelve compounds already listed, ordered by heavy-atom count, smallest number first:
SMILES,GIV Gai3 FP,HCMV NEC inh,Sa growth inh,Sa growth inh second temp
CC1CCN(CN2C(=O)CCC2=O)CC1,92,-32,77,103
C/S(=N\S(=O)(=O)c1ccccc1)c1ccccc1 (centres undefined),101,-16,103,80
CCOC(=O)c1c[nH]c2c(C(=O)OC)cccc2c1=O,.,-12,92,78
Cc1nc(-n2nc(C)c(Cl)c2C)sc1C(=O)N1CCCC1,93,-1,.,.
Cc1ccc2nncc(N3CCN(c4ccccc4F)CC3)c2c1,103,-92,93,54
CC12CCC(=O)N1C(C(=O)OCC(=O)N1CCc3ccccc31)CS2 (centres undefined),.,7,84,94
O=C(Cn1cnc2scc(-c3ccc(Br)cc3)c2c1=O)N1CCNC1=O,.,-29,79,79
O=C(COc1ncnc2c1cnn2-c1ccccc1)N1CCc2ccccc21,.,-17,106,94
COc1cc(Nc2nc3ccc(Cl)cc3nc2-n2nc(C)cc2C)cc(OC)c1,107,-12,111,88
Cc1cc(C)nc(NS(=O)(=O)c2ccc(Nc3nc(-c4sc(C)nc4C)cs3)cc2)n1,103,-21,.,.
COc1cc(NC(=O)CCNC(=O)Cn2cnc3ccccc3c2=O)cc(OC)c1OC,99,4,98,86
CCOC(=O)C1=C(C)N=c2s/c(=C\c3ccc(C(=O)OC)cc3)c(=O)n2C1c1ccc(Cl)cc1 (centres undefined),106,-9,.,.

# Additional results follow.
SMILES,GIV Gai3 FP,HCMV NEC inh,Sa growth inh,Sa growth inh second temp
CCC(Sc1nnc(C)n2c1cc1occc12)C(=O)Nc1ccccc1F (centres undefined),115,.,78,64
CCc1nc2ccccc2n1C(C)C(=O)O (centres undefined),102,-9,.,.
COC(=O)c1ccccc1NC(=O)CCC(=O)N1CC(C)Sc2ccccc21 (centres undefined),108,.,88,91
CCc1ccccc1NC(=O)c1cc2nc(-c3ccc(Br)cc3)cc(C(F)(F)F)n2n1,101,.,102,91
COCCNC(=O)c1cc(-c2cccc(OC)c2)no1,99,-11,93,87
CCOc1ccc2nc(NC(=O)CSc3nnc(Cc4csc(C)n4)o3)sc2c1,.,-24,77,74
N#Cc1ccc(OCc2nnc(SCC(=O)c3ccccc3)n2-c2ccccc2)cc1,94,-6,93,71
COCCCNc1oc(-c2ccc(COc3ccccc3C)o2)nc1C#N,102,-15,106,92
CC(C)(C)c1ccc2c(c1)N(CC(=O)Nc1ccc(CCc3nc4ccccc4[nH]3)cc1)C(=O)CO2,101,-39,.,.
CCN=C1SC(CC(=O)Nc2cccc(C(=O)O)c2)C(=O)N1CC (centres undefined),98,.,121,93
CCOc1ccc(N2CC(c3nc4ccccc4n3CCC3CCCCC3)CC2=O)cc1 (centres undefined),101,-30,94,83
CCc1ccccc1NC(=O)CN(c1cccc(C)c1C)S(C)(=O)=O,98,-10,104,85
Oc1ccc(-c2[nH]ncc2-c2cccc3cccnc23)c(O)c1,.,0,93,104
Cc1sc(NC(=O)C2COc3ccccc3O2)c(C(N)=O)c1C (centres undefined),101,-8,100,85
CCOc1ccc(C(=O)Nc2ccc3oc(-c4ccc(C)cc4C)nc3c2)cc1Br,107,-50,94,87
CCOc1ccccc1OCC(=O)OCC1CC1,.,-4,97,90
COc1ccc(NC(=O)CC2Nc3ccccc3NC2=O)cc1 (centres undefined),106,-41,111,87
Cn1c(CSc2ccnc3cc(Cl)ccc23)nnc1SCC(=O)c1ccc(Cl)s1,105,-54,92,81
COc1ccc(COc2ccc(=O)n(-c3ccc(C(=O)NC4CCCCC4)cc3)n2)cc1,104,-25,.,.
O=c1c(C=NCC2CCCO2)c(CSc2ccc(Cl)cc2)[nH]n1-c1nc2ccccc2s1 (centres undefined),108,-23,.,.
Cc1nc(-c2n[nH]c(=S)o2)cs1,104,-18,85,81
COc1cc(/C=c2\sc3nc4ccccc4n3c2=O)ccc1Oc1nc(N2CCOCC2)nc(N2CCOCC2)n1,106,-24,.,.
COC(=O)c1ccccc1S(=O)(=O)N1CCC(C(=O)OCC(=O)Nc2ccccc2F)CC1,.,-16,80,79
Cc1c(C)n(C)c2ccc(C(=O)NCc3cccc(F)c3)cc12,105,.,103,89
Cc1cc(C(=O)Nc2cccc(C(F)(F)F)c2)on1,103,6,101,92
CC(C)Cc1cc(C(=O)Nc2cccc(Cl)c2)no1,105,-3,91,90
CC(=NCCO)c1c(-c2ccccc2)[nH]n(-c2nc3ccccc3s2)c1=O,.,-5,105,83
COc1nc(-c2ccccc2)cc(-c2ccc(C)cc2)n1,110,1,88,94
CC1CCCC(C)N1CCCNc1ccc2nnc(-c3ccccc3)n2n1 (centres undefined),100,.,88,93
CN1/C(=C/P(=O)(N(C)C)N(C)C)C(C)(C)c2ccccc21,.,-3,103,105
Cc1cc(Cl)ccc1OCc1cc(=O)n2c3c(sc2n1)CCCC3,104,-8,105,85
O=c1cc(CSc2ccc(Cl)cc2)[nH]c(=S)[nH]1,93,-2,84,43
Cc1n[nH]c(C)c1N,100,1,90,95
COC(=O)c1ccccc1NC(=O)CSc1ncn[nH]1,.,-2,110,94
Nc1cccc(-c2ncon2)c1,106,83*,162,74
COc1cc(CN2CCN3CCCC3C2C2CCCCC2)cc(OC)c1 (centres undefined),108,6,98,106
CCOC(=O)c1sc2cccc(F)c2c1S(=O)(=O)N1CCN(c2cccc(Cl)c2)CC1,103,.,93,88
Cc1ccc(CN2C(=O)C3(c4ccccc42)N(c2cccc(C(F)(F)F)c2)C(=O)CS3(=O)=O)cc1 (centres undefined),106,.,96,87
COc1cc2nc(NCC(C)c3ccccc3)n3nc(-c4ccccc4)nc3c2cc1OC (centres undefined),107,16,95,89
CCc1ccc(OCCCn2c(-c3ccc(Cl)cc3)nc3ccccc3c2=O)cc1,101,-12,98,94
CC1CCCCN1C(=O)Cn1c(=O)oc2ccccc21 (centres undefined),100&103,-3&-13,112,103
COc1ccc(Br)cc1CNC(=O)C1CCN(C(=O)N(C)C)CC1,100,.,122,87
Cc1cc(C)nc(NC2=NCCN2C(=S)Nc2c(C)cccc2C)n1,108,8,95,97
O=C(Nc1cccc(-c2cn3ccccc3n2)c1)c1cc2cc(Br)ccc2oc1=O,105,3,.,.
CCCN(CCC)C(=O)Nc1cccc(F)c1,100,-37,105,95
Cc1noc(COc2ccccc2OCC(O)CN2CCN(C)CC2)n1 (centres undefined),.,-12,97,83
Cc1ccc2oc(=O)c(-c3nc(-c4cccs4)no3)cc2c1,106,.,121,90
CCSc1cc(C)nc2ncnn12,107,2,100,76

# Next part (2 carried over from the part before).
SMILES,GIV Gai3 FP,HCMV NEC inh,Sa growth inh,Sa growth inh second temp
Cc1ccc2oc(=O)c(-c3nc(-c4cccs4)no3)cc2c1,106,.,121,90
CCSc1cc(C)nc2ncnn12,107,2,100,76
O=C(O)CN1C(=O)CCS(=O)(=O)c2ccccc21,103,.,96,84
COc1ccc(CCN2C(=O)CN(C3CCCCCC3)C(=O)C2c2ccc(OC(C)C)c(OC)c2)cc1OC (centres undefined),102,.,129,91
CCCC(=O)N1CCN(c2nc3ccc(F)cc3s2)CC1,98,.,104,87
O=S1(=O)CC=C(CBr)C1,.,-13,115,94
c1ccc(CN2CCN(c3nnc(Cc4cccnc4)c4ccccc34)CC2)cc1,103,8,93,90
Cc1ccc(NC(=O)COc2cccc3ccc(N4CCCCC4)nc23)cc1,105,-20,.,.
O=C1Nc2ccccc2/C1=N\N1C(=O)C2C=CC=CC2C1=O (centres undefined),.,-73,23,3
COc1ccc(-c2cnnn2-c2ccc(NC(=O)c3ccccc3C(F)(F)F)cc2)cc1OC,102,.,83,71
Cc1nnc(SCC(=O)NC2CCCCCC2)[nH]c1=O,.,-22,0.2*,0.0*
Cc1ccc2c(c1)C(C(=O)O)=Cc1ccccc1O2,108,5,115,129
CCOc1ccc(CCNC(=O)c2ccc3c(Cl)c4c(nc3c2)CCCC4)cc1,103,-24,108,90
CCc1ccc(Nc2nc3ccccc3nc2NS(=O)(=O)c2ccccc2)cc1,104,-18,107,88
O=C(CCn1c(=S)oc2ccccc21)NN1CCOCC1,102,.,94,81
CN1CCN(CCNC(=O)C2c3ccccc3C(=O)N(C3CCCC3)C2c2cccs2)CC1 (centres undefined),103,-15,88,86
O=C(CCN1C(=O)COc2ccccc21)NCc1ccccc1,100,.,120,81
O=C(c1ccc(N2CCCC2)c(S(=O)(=O)N2CCCC2)c1)N1CCN(c2ccccn2)CC1,105,8,.,.
Cc1cc2c(SCC(=O)NC3CCCC3)ncnc2s1,103,-7,105,90
Cc1ccc(-c2csc3ncnc(N4CCC(O)CC4)c23)cc1,94,-24,92,83
O=C(CNS(=O)(=O)c1cccs1)NC(c1ccccc1)c1ccccc1,105,.,99,86
COc1ccccc1NC(=O)Cn1c(SCC(=O)N(C)c2ccccc2)nc2ccccc21,110,.,130,96
COc1cc(OC)c(NC(=O)Cn2c(=O)c(C(F)(F)F)nc3ccccc32)cc1Cl,105&102,-17,78,91
CC1=CC(=O)CN(S(=O)(=O)c2ccc(C)cc2)C1,.,-5,121,79
O=C(c1ccc(CSc2nc3ccncc3n2Cc2cccc(F)c2)cc1)N1CCCCCC1,102,-16,113,73
CCCn1c2ccccc2c2cnn(CC(=O)NCCOC)c(=O)c21,109,-10,99,103
CCOC(=O)N1CCC(NS(=O)(=O)c2ccc3c(c2)C(C)(C)C(=O)N3C)CC1,101,.,92,85
CC1(C)CCCC(C)(C#CCN2CCCC(c3cccnc3)C2)O1 (centres undefined),102,6,108,89
COc1ccc(NC(=O)CCCN2C(=O)CCn3nc(-c4cn(C)c5ccccc45)cc32)cc1,104,.,93,87
Cc1nc2c(c(C)c1CCC(=O)NCc1ccccc1)c(=O)n(C)c(=O)n2C,108,-41,93,87
O=S(=O)(c1ccccc1)N1CCN(CCO)CC1,.,-1,83,94
Cc1ccccc1CSCCC(=O)NCc1ccccc1,105,-18,80,87
COc1cccc(Cn2nnc3c(=O)[nH]c(C4CCN(C(=O)c5ccccc5)CC4)nc32)c1,104,.,0.8*,1.9*
Cc1cccc(CSc2nc3c(sc4ccccc43)c(=O)n2CCC(=O)NC(C)C)c1,108,6,103,100
COc1ccc(CN(C(=O)Nc2ccc(OC)cc2)C2CCN(C(C)=O)CC2)cc1,101,-21,88,86
Cc1nc2c(ccc3nc(NC(=O)c4ccc(S(=O)(=O)N5CC(C)OC(C)C5)cc4)sc32)s1 (centres undefined),106,-18,.,.
CC(C)CCNC(=O)Cn1c(SCc2cccc(F)c2)nc2ccncc21,99,1,103,82
O=C(Cc1cn2ccsc2n1)OCc1ccc(Cl)c(Cl)c1,.,-3,130,96
COc1ccc(-c2cc3c(SCC(=O)NC4CCCC4)nccn3n2)cc1,100,-20,.,.
CCOc1ccc(NC(=O)Cn2cc(C(=O)c3ccc(F)cc3)c(=O)c3cc4c(cc32)OCO4)cc1,97,-21,100,89
